Polio RdRp inh: poliovirus RNA polymerase inhibition; P03300; poliovirus polymerase elongation, fluorescence polarization; hits give low values; % elongation, % (compound at 16.7 µg/mL); hit rate 0.66% among 150,000; in the data active means % elongation below about 90%; further: some results filed as inactive read as strong as hits
Target sequence (P03300 1749-2209 limits assumed): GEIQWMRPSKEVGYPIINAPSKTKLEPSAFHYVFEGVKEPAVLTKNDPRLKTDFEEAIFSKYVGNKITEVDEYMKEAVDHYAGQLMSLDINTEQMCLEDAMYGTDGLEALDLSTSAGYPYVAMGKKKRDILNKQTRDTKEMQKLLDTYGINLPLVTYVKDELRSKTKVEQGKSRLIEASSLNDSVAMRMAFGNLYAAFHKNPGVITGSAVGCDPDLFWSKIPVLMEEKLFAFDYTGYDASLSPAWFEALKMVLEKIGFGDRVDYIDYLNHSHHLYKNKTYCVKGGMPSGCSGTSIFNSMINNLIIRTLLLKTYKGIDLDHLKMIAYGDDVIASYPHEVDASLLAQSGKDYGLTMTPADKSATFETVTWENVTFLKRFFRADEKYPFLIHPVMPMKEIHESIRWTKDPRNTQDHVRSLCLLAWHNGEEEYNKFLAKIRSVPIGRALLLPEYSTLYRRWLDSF
MenB inh: inhibitors of Mycobacterium tuberculosis MenB enzyme; hit rate 0.43% among 100,000; P9WNP5; inhibition, %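 (about 12 µg/mL by stock and volumes)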; AID 540299; MenB enzyme assay, absorbance read-out; some hits fall short of the stated cut;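 active means mean of two replicates above 30%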;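 further: 0% = no compound and 100% = wells with inactive enzyme; the first replicate is given; strong numbers were not always called active; inactives centre near -10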
Target sequence (P9WNP5 whole entry, looked up): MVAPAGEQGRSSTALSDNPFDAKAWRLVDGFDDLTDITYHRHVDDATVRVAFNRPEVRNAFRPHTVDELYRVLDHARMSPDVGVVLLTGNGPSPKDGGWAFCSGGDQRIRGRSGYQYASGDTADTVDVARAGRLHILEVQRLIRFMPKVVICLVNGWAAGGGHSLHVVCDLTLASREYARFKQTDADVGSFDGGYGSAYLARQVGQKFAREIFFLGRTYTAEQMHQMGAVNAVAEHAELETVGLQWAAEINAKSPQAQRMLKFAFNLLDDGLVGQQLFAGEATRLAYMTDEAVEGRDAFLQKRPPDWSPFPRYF
Mtb MbtI inh: inhibitors of Mycobacterium tuberculosis siderophore enzyme MbtI. purified MbtI enzyme, fluorescence intensity read-out. inhibition, %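 (about 17 µg/mL by stock and volumes)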. hit rate 0.89% among 100,000. AID 493033;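 active means above 50% in both replicates, above 80% if mildly self-fluorescent; inactive means the rest, strongly fluorescent compounds included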;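 further: 0% = mean of negative and 100% = mean of positive controls; one replicate is shown; some compounds called inactive have numbers as strong as hits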
Polio RdRp inh intensity: second read-out of Polio RdRp inh, no call of its own (marks repeat the call); % elongation; measured here: total intensity read-out; formula for this scale not given here;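 total fluorescence in place of polarization; lower means less elongation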
Starred values were filed as active, the others as inactive; · = no result given; & = joins results of further samples. Compounds were not picked by outcome. Share with any hit: about 1.8%.

Sequence of screens – Polio RdRp inh intensity	Mtb MbtI inh	MenB inh	Polio RdRp inh
- Cc1nc2sc(C(=O)N(Cc3ccco3)Cc3cccs3)c(C)c2c(=O)[nH]1
 : 98	9	-14	102
- Cc1c(Cl)cccc1NC(=O)CSc1nc(=O)n(CCN2CCOCC2)c2c1CCCC2
 : 103	-5	2	98
- Cc1ccc(CSCC2COC(c3cccs3)=N2)cc1 (stereo not drawn)
 : 107	4	-33	106
- CCOC(=O)C1CCN(C(=O)c2ccccc2NC(=O)c2cccc(F)c2)CC1
 : 93	·	-25	107
- FC(F)(F)c1cccc(NC(=S)Nc2cc(-c3cccs3)[nH]n2)c1
 : 103	2	-7	101
- N#Cc1ccccc1S(=O)(=O)N1CCN(Cc2c(O)ccc3ccccc23)CC1
 : 109	-115	9	103
- CCOc1ncccc1C(=O)NCc1ccc(F)cc1
 : 114	15	-16	105
- CC(Oc1ccc(Br)cc1)C(N)=O (stereo not drawn)
 : 102	-13	-32	100
- Cc1cccc(C)c1NC(=O)Cn1c(=O)n(CCCC(=O)NCc2ccco2)c(=O)c2sccc21
 : 103	-10	-11	100
- CC1CCN(Cn2cnc3ccccc3c2=O)CC1
 : 103	10	8	98
- Cn1c(CNc2ccc(Cl)cc2)nnc1SCc1ccc(Cl)cc1
 : 99	-2	-51	102
- O=C1N(c2ccc(Cl)cc2)C(c2ccc(Cl)cc2)N2CCCN12 (stereo not drawn)
 : 95	0	-31	101
- CC(=O)NCc1ccc(C(=O)COC(=O)c2cc(C)nc3ccccc23)o1
 : 104	54	0	99
- S=c1[nH]c2ccccc2nc1N1CCOCC1
 : ·	-5	-23	·
- CCOC(=O)c1[nH]c(COC(=O)[C@H](C)NS(=O)(=O)c2ccc(OC)cc2)c(C(=O)OCC)c1C
 : 112	-19	-28	107

Sequence of screens – Polio RdRp inh intensity	Mtb MbtI inh	MenB inh	Polio RdRp inh
- N#Cc1ccc(CN2C(=O)CCC2=O)cc1
 : 95	-5	·	100
- COc1ccc(NC(=O)C2C(c3ccccc3)=C2c2ccccc2)cc1
 : 97	·	-2	102
- O=C(O)C1Sc2[nH]c(=O)sc2C2c3cc(Br)cc(Br)c3OC(=O)C12 (stereo not drawn)
 : 105	88	20	99
- Cc1ccc(-c2nc3n(n2)C(=O)CC(c2ccc4c(c2)OCO4)S3)cc1 (stereo not drawn)
 : 101	3	-27	99
- O=c1nccc(C(F)(F)F)[nH]1
 : 107&100	3&-11	-25	103&105
- Cn1nnnc1SCCCC(=O)c1ccc(F)cc1
 : 98	8	-31	105
- CC(NC(=O)c1ccncc1)c1ccccc1 (stereo not drawn)
 : 103	·	-20	107
- Cc1cc(C(F)(F)F)n2nc(C)cc2n1
 : 100	2	-39	102
- O=S(=O)(c1ccccc1)N(CCOc1ccc(F)cc1)c1nccs1
 : 115	0	-47	105
- CCOc1ccc(NC(=O)c2cc(-c3ccc(F)cc3)[nH]c2C)cc1
 : 98	-3	-4	105
- O=C(CCCn1c(=O)oc2ccccc21)NC1CCCc2ccccc21 (stereo not drawn)
 : 103	-6	-2	99
- CN(CC(=O)NCc1ccccn1)S(=O)(=O)c1ccccc1
 : 106	-5	-20	102
- CC(C)c1ccc(/C=N/NC(N)=S)cc1
 : 101	23	-63	98
- CC(=O)N1CCc2cc(C(=O)C[n+]3ccccc3)ccc21
 : 102	13	-19	98
- CC1Cc2ccccc2N1C(=O)CSc1nc2cc(Cl)ccc2o1 (stereo not drawn)
 : 109	-9	-15	102

Sequence of screens – Polio RdRp inh intensity	Mtb MbtI inh	MenB inh	Polio RdRp inh
- CC1CN(S(=O)(=O)c2ccc(NC(=O)Cc3ccccc3F)cc2)CC(C)O1 (stereo not drawn)
 : 105	-10	-2	107
- Cc1ccc(-c2ccc(CCC(=O)O)n2-c2cc(C)cc(C)c2)cc1
 : 102	4	-20	100
- O=C(O)CCCC[C@@H]1SC[C@@H]2NC(=O)N[C@@H]21
 : 104	-1	-1	97
- CCC(/C=N/Nc1nc(C)cc(C)n1)CC
 : 110	5	-42	111
- Cc1cc(/C=C(\C#N)C(=O)C(C)(C)C)c(C)n1C1CCCC1
 : 107	3	-24	110
- O=CN1CCN(CC(O)Cn2c3ccccc3c3ccccc32)CC1 (stereo not drawn)
 : 98	5	-16	100
- CNC(=O)NC(=O)Cn1nc2n(c1=O)-c1ccccc1SC2
 : 97	4	-2	100
- CCOc1ccccc1N(C)C(=O)c1cc(S(=O)(=O)N(CC)c2ccccc2)ccc1F
 : 103	2	-5	103
- Oc1ccc(CNc2cccc(Cl)c2)c2cccnc12
 : 198	·	-36	161
- CCc1ccc(OC(=O)c2ccc(C)cc2)cc1
 : 99	·	-17	99
- COC(=O)c1sc(NC(=O)c2ccccc2)c(C(=O)OC)c1C
 : 80*	·	-28	68*
- Cc1nc2cc3ccccc3cc2c(=O)n1CCCNC1CCCCC1
 : 89*	·	-10	90*
- COc1ccc(/C=C/C(=O)N2c3ccc(C)cc3C3CN(C)CCC32)cc1 (stereo not drawn)
 : 95	12	10	95
- Cc1ccc(C(C)(C)C)c(OCCN2CCCC2)c1
 : 101	0	-4	98
- CCc1nc2oc(C(=O)c3ccccc3)c(N)c2c2c1COC(C)(C)C2
 : 96	-10	-28	99

Sequence of screens – Polio RdRp inh intensity	Mtb MbtI inh	MenB inh	Polio RdRp inh
- CO[C@@]1(NC(=O)CSCC#N)C(=O)N2C(C(=O)O)=C(CSc3nnnn3C)CSC21 (stereo partly drawn)
 : 101	-17	0	100
- Cc1nc2ccccc2c(=O)n1NCc1cccs1
 : 95	-9	-27	102
- CC(C)NCCn1c(-c2ccc(Br)cc2)cn2c3ccccc3nc12
 : 98	·	7	96
- CC1=C(C(=O)Nc2ccc(C)cc2)C(c2ccco2)n2c(nc3ccccc32)N1 (stereo not drawn)
 : 103	-23	0	101
- CCCN(CC(=O)Nc1ccc(F)c(F)c1F)C(=O)c1cc2ccccc2o1
 : 105	-5	1	104
- CC(/C=C1\SC(=S)N(CCC(=O)Nc2ccc(O)c(C(=O)O)c2)C1=O)=C\c1ccccc1
 : 108	10	-135	103
- Cc1cc(=O)n2nc(N(C)CC(=O)N3CCCCC3)sc2n1
 : 104	17	1	102
- CN(C)c1ccc(N2CC(=O)SC2=NC#N)cc1
 : 105	·	-15	113
- COC(=O)c1sc2ccccc2c1S(=O)(=O)N1CCN(c2ccccc2)CC1
 : 104	12	-15	101
- Cc1ccc(C=Nc2ccc(C(N)=O)cc2)s1
 : 98	4	-70	101
- c1ccc(Oc2nc(N3CCOCC3)nc(N3CCOCC3)n2)cc1
 : 102	-7	-11	102
- Clc1ccc2sc(Sc3ccccc3)nc2c1
 : 109	-13	-3	109
- COc1cc2c(cc1OC)C(c1cccs1)N(C(=O)c1cnn(-c3ccccc3)n1)CC2 (stereo not drawn)
 : 107	-13	-13	104
- CC(C)C(c1nnnn1C1CCCC1)N(Cc1ccc(Cl)cc1)CC1CCCO1 (stereo not drawn)
 : 102	-4	-32	103
- CC(C)=C1C2CCC1C(C(=O)N1CCN(c3ccccc3Cl)CC1)C2C(=O)O (stereo not drawn)
 : 101	-18	-3	100

6 of the compounds above, as tab-separated lines.
mol	Polio RdRp inh intensity	Mtb MbtI inh	MenB inh	Polio RdRp inh
Cc1cc(=O)n2nc(N(C)CC(=O)N3CCCCC3)sc2n1	104	17	1	102
CC(C)NCCn1c(-c2ccc(Br)cc2)cn2c3ccccc3nc12	98	·	7	96
CCCN(CC(=O)Nc1ccc(F)c(F)c1F)C(=O)c1cc2ccccc2o1	105	-5	1	104
CO[C@@]1(NC(=O)CSCC#N)C(=O)N2C(C(=O)O)=C(CSc3nnnn3C)CSC21 (stereo partly drawn)	101	-17	0	100
c1ccc(Oc2nc(N3CCOCC3)nc(N3CCOCC3)n2)cc1	102	-7	-11	102
Clc1ccc2sc(Sc3ccccc3)nc2c1	109	-13	-3	109

The results go on.
Sequence of screens – Polio RdRp inh intensity	Mtb MbtI inh	MenB inh	Polio RdRp inh
- O=C1NC(=S)N/C1=C/c1cc2ccccc2nc1N1CCCCC1
 : 118	·	-25	113
- O=C(CCC(=O)c1cccs1)OCc1ccccc1
 : 105	0	·	102
- CCSc1nc2sc3c(c2c(=O)n1CC)CCc1ccccc1-3
 : 88	83	-45	96
- CC(C)c1ccc(NC(=O)Cn2nnc(C(=O)NCc3ccccc3)c2N)cc1
 : 106	-5	-28	99
- O=C(O)c1ccccc1OCc1ccc2ccccc2n1
 : 108	·	-18	110
- O=C1C(N2CCCCC2)=C(n2nnc3ccccc32)C(=O)C(N2CCCCC2)=C1n1nnc2ccccc21
 : 101	2	-21	105
- CC(NC(=O)CSc1nnc(-c2ccccc2)n1C)c1ccccc1 (stereo not drawn)
 : 109	-11	-2	102
- CN(C)c1ccc(/C=C/C=C2/C(=O)NC(=O)N(c3ccccc3)C2=O)cc1
 : 106	5	6	106
- COc1ccc(Cc2nn3c(Cc4ccccc4)nnc3s2)cc1
 : 97	93*	-37	96
- O=C(N/N=C/c1ccc(N2CCOCC2)cc1)c1ccncc1
 : 134	-2	-12	127
- CCO/N=C(/C)C1=C(O)C(C(=O)OC)C(C)(C)CC1=O (stereo not drawn)
 : 104	1	-16	101
- CN(C)CCC(=O)c1ccc2c(c1)OCO2
 : 101	62	19	102
- CC(=O)N=Cc1c(C)c(C#N)c(=O)n(C)c1O
 : 120	·	-24	99
- Cc1oc(-c2ccc(C(=O)NC3CC3)cc2)nc1CS(=O)(=O)c1ccccc1
 : 103	12	-1	102
- CCC(CC)c1nn2c(=O)cc(CSc3ccccc3NC(=O)c3ccco3)nc2s1
 : 103	19	-17	103

Sequence of screens – Polio RdRp inh intensity	Mtb MbtI inh	MenB inh	Polio RdRp inh
- COc1ccc(-c2noc(N3CCN(c4ccc(OC)cc4)CC3)n2)cc1
 : 105	-7	1	102
- CCOc1ccc(S(=O)(=O)NCCC(=O)Nc2cccc(-c3nnc4n3CCCCC4)c2)cc1
 : 93	-1	-3	99
- N#Cc1ccc(NC(=O)CSC2=Nc3ccccc3C3CC=NN23)cc1Cl (stereo not drawn)
 : ·	-4	5	·
- O=C(O)CCCN1C(=O)c2ccccc2S1(=O)=O
 : 105	-4	-8	101
- CCOC(=O)C(C#N)C1(c2ccccc2OC)CCOC(C)(C)C1 (stereo not drawn)
 : 98	2	22	105
- CCS(=O)(=O)N1CCN(C(=O)c2ccc(OC)cc2)CC1
 : 101	-15	-60	107
- O=C(CSc1nc2ccccc2s1)N1CCc2ccccc2C1
 : 102	1	·	102
- O=C(O)c1cc(Cl)nnc1Cl
 : 100	-6	·	103
- O=C1C(=Cc2ccc(N3CCOCC3)o2)C(=O)c2ccccc21
 : 98	7	-12	104
- O=C(OCC(=O)N(C1CCCCC1)C1CCCCC1)c1ccncc1
 : 107	-2	1	108
- O=C(Nc1cccc(C(F)(F)F)c1)c1cc(-c2ccccc2)n[nH]1
 : 102	1	·	103
- CC(=O)NS(=O)(=O)c1ccc(NC(=O)C2CCCN2C(=O)OC(C)(C)C)cc1 (stereo not drawn)
 : 98	18	2	98
- Cc1cccc(NC(=O)NCC(=O)NC2CC2)c1
 : 105	-2	0	104
- O=C(Sc1ccc(C(F)(F)F)cn1)c1csc(C2COc3ccccc3O2)n1 (stereo not drawn)
 : 99	71*	-12	102
- Cc1ccccc1OCCN1C(=O)NC2(CCC(C)CC2)C1=O (stereo not drawn)
 : 109	-13	-28	105

Sequence of screens – Polio RdRp inh intensity	Mtb MbtI inh	MenB inh	Polio RdRp inh
- O=C(NCCc1ccccc1)c1nn2cccnc2c1Cl
 : 100	-10	3	99
- CC(=O)Nc1c(C(C)C)cccc1C(C)C
 : 104	-3	·	102
- CCc1cc2c(=O)c(-c3ccc4c(c3)OCCO4)c(C)oc2cc1O
 : 101	-40	3	102
- O=C(Nc1nccs1)c1cc2c(cc1Cl)N1CCCCCC1=NS2(=O)=O
 : 109	-6	-4	106
- N#CCC1=NC(=O)/C(=C/c2ccc(F)cc2)S1
 : 117	-13	-11	109
- O=C(NCCc1ccccc1)c1ccc2c(c1)OCCCO2
 : 101	8	-5	99
- O=C(Nc1nc2cc3c(cc2s1)OCO3)c1ccc2ncsc2c1
 : 104	92	4	99
- CCCN(CCC)C(=O)Cn1ccc(=N)c2ccccc21
 : 101	52	-2	100
- O=c1[nH]c(=O)n(CCC2=CCCCC2)c(O)c1/C=C1/C=CC=N1
 : 105	0	10	102
- C=C(C)CSc1nnc(-c2cccc(S(=O)(=O)N3CCOCC3)c2)n1-c1cccc(Cl)c1
 : 104	-12	6	103
- O=C(O)c1cccc(NC(=S)NC(=O)c2cccnc2)c1
 : 104	-12	-12	99
- N#Cc1ccccc1OCC(=O)C12CC3CC(CC(C3)C1)C2
 : 109	-17	-20	106
- COCCNCc1c(C(=O)O)c(C)n(Cc2ccccc2C)c1C
 : 100	3	-6	101
- Cc1ccc(C(=O)NC(=S)NCc2ccco2)cc1
 : 101	10	10	103
